# Assay outcomes (PubChem BioAssay)
# HCMV UL50-53 inh: cytomegalovirus nuclear egress complex inhibition | HTRF UL50-UL53 interaction, normalized percent inhibition | 190,000 compounds, 0.15% hits | AID 1918969 | inhibition, % (test concentration not listed);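 active = both replicates at 50% or more, plus weaker picks with an unusually low signal ratio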;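 also: stock transfer was 100 nL into about 20 µL; 0% = negative control wells and 100% = wells with untagged competitor protein; inactives centre near -12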
# GIV Gai3 FP: GIV-Galpha-i interaction inhibition. P08753. Galpha-i3/FITC-GIV peptide fluorescence polarization, 90 min; stronger effect = lower value; scaled: aluminum fluoride 0%, vehicle 100%. percent of control (FP), % (no concentration beside the values). 210,000 compounds, 0.42% hits. AID 1224905;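 active = replicate mean at 85% of control or lower, very high polarization wells dropped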;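 also: wells of about 15 µL received 100 nL stock; the first replicate is given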
# Target sequence (P08753 whole entry, looked up): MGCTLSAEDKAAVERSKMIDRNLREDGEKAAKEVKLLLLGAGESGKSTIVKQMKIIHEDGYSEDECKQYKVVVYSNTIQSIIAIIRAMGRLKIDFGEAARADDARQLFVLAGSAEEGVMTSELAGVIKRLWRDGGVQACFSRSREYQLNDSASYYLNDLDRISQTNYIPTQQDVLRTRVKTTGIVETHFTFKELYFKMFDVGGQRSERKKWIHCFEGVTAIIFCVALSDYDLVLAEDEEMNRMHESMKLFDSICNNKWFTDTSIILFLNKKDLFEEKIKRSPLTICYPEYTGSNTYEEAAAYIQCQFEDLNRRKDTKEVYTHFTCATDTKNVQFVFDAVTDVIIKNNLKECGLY
# Sa growth 42C: blocks Staphylococcus aureus growth. S. aureus RN4220 growth, OD600, 20 h, 42 °C; stronger effect = lower value. relative growth, % (no concentration beside the values). 170,000 compounds, 0.53% hits. AID 720641;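 active = growth at 42 °C up to 50% and 20 or more points under that at 30 °C, or under 10% at both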;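 also: 300 nL library stock went into each well; scaled to the means of positive and negative controls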
# Sa growth 42C second temp: recorded beside Sa growth 42C, whose call it bears; relative growth, %; measured here: growth at 30 °C;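 optical density after 20 h as mean of two plates; 100% = untreated growth and lower means inhibition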
# Active calls of the source: *; nt = not tested or not shown; & = joins results of further samples.
SMILES,HCMV UL50-53 inh,GIV Gai3 FP,Sa growth 42C,Sa growth 42C second temp
COc1ccc2nc(NC3=NC(C(=O)Nc4ccccc4)CC(=O)N3)nc(C)c2c1 (stereo not drawn),-17,103,nt,nt
CC1(C)CC(=O)C=C(Nc2ccc3c(c2)OCCO3)C1,27,nt,83,101
CCCCN1CC(c2nc3ccccc3n2CCCCOc2ccccc2C)CC1=O (stereo not drawn),-25,103,73,23
CC(C(=O)O)c1ccc(-c2ccccc2)c(F)c1 (stereo not drawn),-4&-13&-3&-18&16&16&-18&-18&-37&-38&-67,101,90&105&97,89&97&89
CCNc1nc(NCC)n2c(SCC(=O)N3CC4(C)CC3CC(C)(C)C4)nnc2n1 (stereo not drawn),-12,nt,103,95
COc1ccc(NC(=O)/C=C\C(=O)N(c2ccc(C(C)C)cc2)C(C(=O)NCc2ccco2)c2ccc(C)cc2)cc1 (stereo not drawn),nt,109,107,103
Cn1c(=O)c2c(nc(SCC(=O)N3CCCCC3)n2C)n(C)c1=O,-4,nt,95,88
CN(c1cnn(-c2ccc(Cl)cc2Cl)c(=O)c1Cl)N1CC(C)(C)C1=O,35,108,105,105
CC(Oc1ccccc1)C(=O)N1CCN(c2ccc(N3CCCCC3)nn2)CC1 (stereo not drawn),-103,102,85,81
O=C(COc1ccccc1)NCC(c1ccc(Cl)cc1)N1CCOCC1 (stereo not drawn),-18,104,107,85
O=c1c2ccccc2[nH]c(=S)n1CCC1=CCCCC1,10,nt,101,93
CCOC(=O)C(Cc1ccccc1Cl)Sc1nnc(N)s1 (stereo not drawn),-15,104,100,92
Cc1ccc(-c2csc3ncn(-n4c(C)ccc4C)c(=O)c23)o1,-43,nt,101,89
CCCCC(=O)NCc1csc(-c2ccc(OC)cc2)n1,-39,104,nt,nt
CCOc1nc2ccccc2c(=O)[nH]1,1,nt,112,83
CCOC(=O)c1c(-c2ccccc2)oc2ccc(NS(=O)(=O)c3ccc(OC)cc3)cc12,-33,104,85,78
CC(C)Nc1nc(NC(C)C)nc(OCCNC(=O)COc2ccc(Cl)cc2Cl)n1,-9,112,nt,nt
COC(=O)c1ccccc1NC(=O)c1nc(-c2ccc(C)cc2)n2c1CCCCC2,nt,105,124,104
COC(=O)c1sccc1-c1ccc(/C=N/OCc2cc(F)cc3c2OCOC3)o1,-15,104,100,88
CSc1nnc(-c2ccccc2)n1N,6,111,97,109
Cc1ccc(N2C(=O)CSC23C(=O)N(Cc2ccccc2F)c2ccccc23)cc1F (stereo not drawn),nt,101,97,95
O=C(Cc1c(Cl)cccc1Cl)NC1=NCCS1,-34,nt,111,101
CN(C)c1nc(NCc2ccccc2)nc(Nc2ccc(OC(F)(F)F)cc2)n1,-1,nt,98,95
CCOC(=O)c1noc2ncnc(Nc3ccc(OC)c(Cl)c3)c12,-14,109,nt,nt
CCN(CC)C(=S)CSc1nc(-c2ccccc2)cc(-c2ccco2)c1C#N,-5,nt,71,118
CC(=O)Nc1nc(C23CC4CC(CC(C4)C2)C3)cs1,nt,102,93,102
CCC(=O)NCC(c1ccc(N(C)C)cc1)N1CCOCC1 (stereo not drawn),-10,104,105,94
COc1ccc(CCN(C)C2CC(=O)N(c3ccccc3)C2=O)cc1OC (stereo not drawn),-7,106,63,52
Oc1ccc(Br)cc1CNCc1ccccc1,9,107,99,95
COc1cccc(-c2nnc(SCC(=O)N(C)c3ccccc3)o2)c1,-14,95,99,87
CC(Oc1ccccc1F)C(=O)NCc1ccc2c(c1)OCO2 (stereo not drawn),-4,nt,105,90
COc1cc(C=Nc2c(C)n(C)n(-c3ccccc3)c2=O)ccc1OC(=O)c1ccco1,-12,107,98,95
CCN(CC)c1ccc2cc(-c3nc4ccccc4[nH]3)c(=O)oc2c1,-18,nt,91,75
CC1=NN(C2CCS(=O)(=O)C2)C(=O)C12Cc1c(C)nn(-c3ccccc3)c1N1CCCCC12 (stereo not drawn),-8,nt,93,97
O=C(Nc1ccc2[nH]c(=O)[nH]c2c1)c1cc2ccccc2o1,12,109,110,101
Cc1cccc(N2CCN(C(=O)CN3C(=O)c4ccccc4Sc4ncccc43)CC2C)c1 (stereo not drawn),42,102,nt,nt
COc1ccc(/C(C)=N/NC(=O)c2cc(C3CC3)[nH]n2)cc1OC,-30,102,96,94
CCc1cc(C(=O)Nc2cc(C)on2)no1,-32,102,nt,nt
CS(=O)(=O)Nc1cc(C(=O)O)ccc1N1CCN(C(c2ccccc2)c2ccccc2)CC1,-33,101,nt,nt
O=C(CSc1nncs1)NCCCc1ccccc1,-4,nt,88,94
CCOc1ccc(CNC(=O)CCCn2c(=O)c3cccn3c3ccc(F)cc32)cc1,-6,105,110,61
Cc1cc(C(=O)COc2ccccc2C#N)c(C)n1-c1cccc(S(=O)(=O)N2CCOCC2)c1,7,nt,105,93
CC1CCc2c(sc(NC(=O)CSc3nncn3C)c2C#N)C1 (stereo not drawn),-7,101,nt,nt
N#CCC(=O)NCc1cccs1,-26,102,83,88
CCOC(=O)c1ccc(N2C(=O)c3n[nH]c(-c4cccs4)c3C2c2ccc(C)cc2)cc1 (stereo not drawn),-58,104,104,77
Cc1nn(C(=O)Nc2cccc(F)c2)c2ccccc12,-2,104,nt,nt
O=C(c1ccc(Cl)cc1)N1CCCCC1,3,nt,96,91
Cc1c(CNCCc2c[nH]c3ccccc23)c(C(=O)O)c(C)n1Cc1cccc(F)c1,-24,106,nt,nt
COc1ccc(-c2c3c(=O)n(C)c(=O)n(C)c3c3n2-c2ccccc2NC3c2ccccc2OC)cc1 (stereo not drawn),-11,102,114,93
COc1ccc(-c2nc3ccccc3o2)cc1NC(=O)COc1ccc(C(C)(C)C)cc1,-14,112,90,84
CCCCNC(=O)CCc1c(C)nc2cc(-c3ccccc3)nn2c1C,-29,100,104,89
NCC1CCCN(CCO)C1 (stereo not drawn),-20,101,84,91
O=C(COc1ccc2ccc(=O)oc2c1)c1ccc2c(c1)OCCO2,-10,nt,101,93
CC(C)Oc1ccc(CNC(=O)Cc2ccc(NC(=O)N3CCSc4ncccc43)cc2)cc1,nt,107,121,87
CC(NC(=O)c1ccccc1)c1nnc(SCC(=O)c2ccccc2)n1C (stereo not drawn),13,101,101,100
Cc1ccc(-c2nn(CCO)c(=O)c3ccccc23)cc1C,-30,112,95,80
Cc1nc2nc3c(c(N4CCN(c5ccccn5)CC4)n2n1)CCC3,-7,104,nt,nt
CCOC(=O)[C@@H]1Nc2ccc(Br)cc2[C@@H]2C=CC[C@H]12,-44,125,80,66
Cc1ccc(S(=O)(=O)N2CCN(Cn3nnc(-c4ccccc4)n3)CC2)cc1,-8,nt,83,87
Fc1ccc(-c2oncc2-c2nnnn2-c2ccc(Cl)cc2)cc1,11,105,105,88
# Additional entries.
SMILES,HCMV UL50-53 inh,GIV Gai3 FP,Sa growth 42C,Sa growth 42C second temp
O=C(O)c1cc(N2CCN(c3ccc(F)cc3)CC2)ccc1NC(=O)C1CCCC1,-23,102,nt,nt
COc1cc(C2CC(=O)c3c([nH]c(C(=O)OCCOc4ccccc4)c3C)C2)cc(OC)c1OC (stereo not drawn),-2,114,104,74
O=C(Cc1nc2ccccc2[nH]1)NCc1ccccn1,-21,nt,106,89
COC(=O)/C=C1\S/C(=N\N=C\c2ccccc2)NC1=O,-36,108,90,69
CN1CCN(S(=O)(=O)c2ccc3c(c2)CCN3C(=O)CCC(=O)N2CCCCC2)CC1,-18,101,nt,nt
N#Cc1ccc(OCC(=O)N/N=C2\CCc3ccccc32)cc1,-11,nt,82,95
CCOc1ccc(NC(=O)CSc2nc3c(c(=O)[nH]2)CN(Cc2ccc(OC)cc2)CC3)cc1,13,96,nt,nt
O=S(=O)(NCc1cn2ccsc2n1)c1ccc2c(c1)OCCO2,-28,104,98,86
O=C1CNc2c(F)c(F)c(F)c(F)c2O1,-41,nt,77,77
COc1ccc(-c2cc(C(=O)N3CCCC3c3ccc(Cl)cc3)on2)cc1 (stereo not drawn),-10,112,nt,nt
CCOC(=O)N1CCc2c(sc3c2c(=O)n(-c2ccc(CC)cc2)c(=O)n3Cc2ccc(F)cc2Cl)C1,-4,109,102,86
CC1=C(c2ccc(Cl)cc2)S(=O)(=O)N=C1N1CCN(c2cc(C)ccc2C)CC1,5,105,101,86
Cc1cccc(N(C)C(CNS(=O)(=O)c2ccccc2)c2ccccc2)c1 (stereo not drawn),-19,103,87,62
CN1CCN(CC(=O)N2c3ccccc3C(=O)Nc3cccnc32)CC1,-36&-42&-14&4,101&105,94&81,92&85
CCC1C/C(=C/c2ccccc2OC)C(=O)/C(=C/c2ccccc2OC)C1 (stereo not drawn),nt,102,91,86

# A second format for part of the listing above:
SMILES | HCMV UL50-53 inh | GIV Gai3 FP | Sa growth 42C | Sa growth 42C second temp
CCOC(=O)[C@@H]1Nc2ccc(Br)cc2[C@@H]2C=CC[C@H]12 | -44 | 125 | 80 | 66
Cc1ccc(S(=O)(=O)N2CCN(Cn3nnc(-c4ccccc4)n3)CC2)cc1 | -8 | nt | 83 | 87
Fc1ccc(-c2oncc2-c2nnnn2-c2ccc(Cl)cc2)cc1 | 11 | 105 | 105 | 88
O=C(O)c1cc(N2CCN(c3ccc(F)cc3)CC2)ccc1NC(=O)C1CCCC1 | -23 | 102 | nt | nt
COc1cc(C2CC(=O)c3c([nH]c(C(=O)OCCOc4ccccc4)c3C)C2)cc(OC)c1OC (stereo not drawn) | -2 | 114 | 104 | 74
O=C(Cc1nc2ccccc2[nH]1)NCc1ccccn1 | -21 | nt | 106 | 89
COC(=O)/C=C1\S/C(=N\N=C\c2ccccc2)NC1=O | -36 | 108 | 90 | 69
CN1CCN(S(=O)(=O)c2ccc3c(c2)CCN3C(=O)CCC(=O)N2CCCCC2)CC1 | -18 | 101 | nt | nt
N#Cc1ccc(OCC(=O)N/N=C2\CCc3ccccc32)cc1 | -11 | nt | 82 | 95
CCOc1ccc(NC(=O)CSc2nc3c(c(=O)[nH]2)CN(Cc2ccc(OC)cc2)CC3)cc1 | 13 | 96 | nt | nt
O=S(=O)(NCc1cn2ccsc2n1)c1ccc2c(c1)OCCO2 | -28 | 104 | 98 | 86
O=C1CNc2c(F)c(F)c(F)c(F)c2O1 | -41 | nt | 77 | 77
COc1ccc(-c2cc(C(=O)N3CCCC3c3ccc(Cl)cc3)on2)cc1 (stereo not drawn) | -10 | 112 | nt | nt
CCOC(=O)N1CCc2c(sc3c2c(=O)n(-c2ccc(CC)cc2)c(=O)n3Cc2ccc(F)cc2Cl)C1 | -4 | 109 | 102 | 86
CC1=C(c2ccc(Cl)cc2)S(=O)(=O)N=C1N1CCN(c2cc(C)ccc2C)CC1 | 5 | 105 | 101 | 86
Cc1cccc(N(C)C(CNS(=O)(=O)c2ccccc2)c2ccccc2)c1 (stereo not drawn) | -19 | 103 | 87 | 62
CN1CCN(CC(=O)N2c3ccccc3C(=O)Nc3cccnc32)CC1 | -36&-42&-14&4 | 101&105 | 94&81 | 92&85
CCC1C/C(=C/c2ccccc2OC)C(=O)/C(=C/c2ccccc2OC)C1 (stereo not drawn) | nt | 102 | 91 | 86

# Further records.
SMILES,HCMV UL50-53 inh,GIV Gai3 FP,Sa growth 42C,Sa growth 42C second temp
Fc1ccccc1CSc1nnc2c(n1)[nH]c1ccccc12,-19,102,120,89
O=C(c1n[nH]c(=O)c2ccccc12)N1CCC(Cc2ccccc2)CC1,-25,nt,99,92
CCOc1ccc(CNC(=O)c2cccn2-c2nnc(N3CCCCC3)s2)cc1OC,nt,100,86,94
CC(C)(C)n1cnc2cc(N=Cc3ccccc3O)ccc21,-34,108,89,87
Cc1cccc(OCc2nnc3n2-c2ccccc2SC3)c1,-18,nt,66,89
CCOc1cc(C2CC(=O)NC(SCC(=O)Nc3ccc(C)cc3C)=C2C#N)ccc1O (stereo not drawn),-18,100,nt,nt
O=C(O)CCC1(C(=O)O)NC(c2ccc(O)cc2O)C2C(=O)N(Cc3ccccc3)C(=O)C21 (stereo not drawn),-4,105,105,89
CCOCCCNC(=O)C(=O)Nc1c2c(nn1-c1ccccc1)CSC2,nt,104,94,78
Cc1ccc(CC(S)C(=O)O)cc1C (stereo not drawn),-17,nt,108,88
CCNC(=O)C(CC)N1C(=O)CCCc2ccccc21 (stereo not drawn),-9,109,nt,nt
COc1ccc(C(=O)Nc2ccn(-c3ccccc3)n2)c(OC)c1,-13,nt,75,89
COC(=O)c1c(N)n(-c2ccc(OC)c(Cl)c2)c2nc3ccccc3nc12,-29,108,110,82
CCOC(=O)c1c(C)oc2nc(C)nc(NCCc3ccc(OC)c(OC)c3)c12,nt,106,91,88
CC(C)C(NC(=O)c1ccc(C23CC4CC(CC(C4)C2)C3)cc1)C(=O)NCC1CCCO1 (stereo not drawn),nt,102,98,105
NC1=C(c2ccc3ccccc3n2)C(=O)CS1,-22,nt,125,82
CCCOc1ccc(C2c3c(oc4ccccc4c3=O)C(=O)N2c2ccc(C)cn2)cc1OCC (stereo not drawn),-16,104,102,87
Cc1ccc(NC(=O)Cn2nnn(-c3ccccc3)c2=O)cc1C,-4,nt,103,98
Cc1ccc(-n2c(C)cc(C(=O)O)c2C)cc1,-31,nt,91,99
O=C(O)CCC(=O)Nc1ccn(Cc2ccc(Cl)cc2)n1,-2,103,105,90
O=C1c2cccnc2C(=O)N1CCc1ccc(S(=O)(=O)N2CCN(c3ccccc3)CC2)cc1,3,105,nt,nt
